PABP polyA inh = blocks human PABP binding to poly(A) RNA | fluorescence polarization | inhibition, % at 35 µM | hit rate 1% among 290,000 | AID 2014;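 active = 50% or more with normal probe brightness, or confirmed in later tests; inconclusive = above 50% with abnormal brightness, or retests that disagree; inactive = below 50% or failed in later tests; about a fifth of its hits are not listed in these tables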;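 also: calls also rest on retests at 20 µM and on dose response follow-up; controls were probe without protein and protein plus probe with vehicle; some compounds called inactive have numbers as strong as hits; many hits fall short of the cut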
Yeast UUG start = yeast start codon fidelity modulation; S. cerevisiae UUG-firefly luciferase reporter, luminescence/redox ratio; activity score, % at 18.7 µM; hit rate 0.13% among 350,000;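 active = replicate mean at a twofold rise or more, about +100% in these data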;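 also: firefly luciferase made from a UUG start codon reports start codon fidelity; reporter light over untreated wells divided by growth signal over untreated wells; some hits fall short of that in this replicate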
eIF4H inh = inhibitors of RNA binding by human eIF4H | hit rate 0.94% among 290,000 | inhibition, % at 35 µM | AID 2012 | Q15056 | eIF4H fluorescence polarization binding assay;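 active = 50% or more with normal probe brightness, or confirmed in later tests; inconclusive = above 50% with abnormal brightness, or retests that disagree; inactive = below 50% or failed in later tests; about a fifth of its hits are not listed in these tables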;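 also: calls also rest on retests at 20 µM and on dose response follow-up; 0% = protein and probe with vehicle and 100% = probe without protein; strong numbers were not always called active; many hits fall short of the cut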
Env fusion inh = blocks HIV Env-driven cell-cell fusion | HeLa-JRFL Env/CEM21 cell fusion, luciferase | inhibition, % at 12.3 µM | hit rate 1.1% among 360,000;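 active = mean replicate inhibition score of at least 50 and every replicate individually at or above 50; inconclusive = only one of the two criteria met; inactive = mean below 50 and not all replicates reaching 50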;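 also: 0% = plate neutral controls and 100% = maraviroc near 300 nM; one replicate is shown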
CSC inhib = blocks cancer stem cells; cancer stem cell-like cells viability, luminescence; inhibition, % at 7.5 µM; hit rate 1.1% among 300,000;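 active = mean at 75% or more and at least half the replicates too; inconclusive = mean and replicates disagree; tested in HMLE shEcad cells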;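 also: 0% = median of negative and 100% = median of positive control wells; the first replicate is given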
Rce1 inhib = yeast Ras-converting enzyme inhibition | calls only | AID 2563 | hit rate 0.27% among 290,000 | yeast membranes, quenched prenylated peptide cleavage fluorescence;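 active = fall in fluorescence gain of 50% or more versus controls, with final raw signal at or below 3038400; inconclusive = same 50% fall but final raw signal above 3038400; inactive = fall in fluorescence gain under 50%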;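 also: plate controls were neutral control wells for no effect and wells lacking membranes for full effect; tested at 10 µM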
Target sequence (Q03530 whole entry, looked up): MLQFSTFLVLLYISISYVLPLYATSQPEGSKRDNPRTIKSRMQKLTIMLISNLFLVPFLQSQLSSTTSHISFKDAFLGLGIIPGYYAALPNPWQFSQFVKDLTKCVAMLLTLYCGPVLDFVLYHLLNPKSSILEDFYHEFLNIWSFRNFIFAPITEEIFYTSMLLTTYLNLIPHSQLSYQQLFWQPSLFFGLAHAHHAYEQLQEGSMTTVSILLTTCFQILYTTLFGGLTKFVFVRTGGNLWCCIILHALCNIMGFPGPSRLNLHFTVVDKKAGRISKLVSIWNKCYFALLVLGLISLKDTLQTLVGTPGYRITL
MT1-MMP act inh = MT1-MMP (human) activation inhibition; GFP/RFP ratio change, % at 20 µM; hit rate 0.061% among 360,000; AID 651647; HT1080 RFP-PRO-GFP cells, GFP/RFP ratio fluorescence, overnight; percent of plate control window, DMSO zero;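 active = GFP/RFP ratio change of at least 30% with cell ATP level not reduced by more than half and red fluorescence within 50% of control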; also: strong numbers were not always called active
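Material – HT1080 RFP-PRO-GFP cells · Control set – DMSO wells and RFP-L50D-GFP cells · Incubation – overnight cell settling, then overnight compound exposure, 37 °C, 5% CO2 · Compound dosing – single-point 20 µM compound, 1% DMSO · Read-out – GFP/RFP fluorescence ratio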
PABP polyA inh retest = second read-out of PABP polyA inh, no call of its own (marks repeat the call); inhibition, %; compound at 20 µM; confirmation repeats;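 mean of two retest wells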
MT1-MMP act inh RFP = recorded beside MT1-MMP act inh, whose call it bears; RFP signal change, %; measured here: RFP expression control read;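 0 = vehicle wells; hits needed this value within 50% of zero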
* hit, by the source's call; i = inactive; ? = inconclusive; nt = not tested or not shown; + = active, no number; & = joins results of further samples; [ ] = remark or other dose.

SMILES	PABP polyA inh	Yeast UUG start	eIF4H inh	Env fusion inh	CSC inhib	Rce1 inhib	MT1-MMP act inh	MT1-MMP act inh RFP	others
CN1/C(=C/C(=O)C2CC2)C(C)(C)c2ccccc21	-4	nt	-6	-3	-3	i	6	7
COc1ccc(NC(=O)CN2CCC(NC(=O)C3CCCCC3)CC2)c([N+](=O)[O-])c1	-2	-13	?	7	-15	i	1	2	PABP polyA inh retest=26
C=CCN(c1cccc(C(F)(F)F)c1)S(=O)(=O)c1cccc(C(=O)OCC(=O)NCCC)c1	38	nt	-6	7	-15	i	0	-1
COc1ccccc1C(NC(=O)C1CCN(CCOc2ccc(Cl)cc2)CC1)c1ccccn1 (centres undefined)	nt	-20	nt	-14	nt	nt	1	5
C=CCn1c(SCC(=O)C23CC4CC(CC(C4)C2)C3)nc(O)cc1=O	0	0	-4	4	-17	i	4	4
Cc1ccc2c(c1)C(SCC(=O)NCCc1ccccc1)CC1(CCCC1)O2 (centres undefined)	5	-16	-1	?	23	i	-3	-9
NC(=S)NNC(=S)Nc1ccccc1	9	nt	-5	-9	-4	i	10	6
COc1ccc(OC)c(C(C(=O)NC2CCCCC2)N(C(=O)c2snc(C(N)=O)c2N)c2ccccc2OC)c1 (centres undefined)	-2	-9	-1	-1	7	i	2	-5
N#CC1(NC(=O)COC(=O)c2ccc(-c3ccc(O)cc3)cc2)CCCCC1	nt	2	nt	nt	8	nt	-2	1
COc1ccc(S(=O)(=O)N2CCCC2C(=O)Nc2nnc(-c3cccnc3)s2)cc1 (centres undefined)	0	-11	10	nt	-10	i	3	3
Cn1c(N)c(C(=O)Nc2ccccc2F)sc1=S	0	-12	-10	-4	-10	i	3	4
CC(C)c1ccccc1OCC(=O)Nc1nnc(C2CC2)s1	nt	-16	nt	4	nt	nt	3	-3
CN=C1c2ccccc2CN1c1cccc(C(=O)OC)c1	-8	-19	0	nt	-2	i	-10	-1
CCC(CC)C(=O)NCCc1ccc(OC)cc1	-1	nt	5	nt	-8	i	0	3
CC(OC(=O)Cc1ccccc1[N+](=O)[O-])C(=O)NC(=O)NC1CCCCC1 (centres undefined)	nt	1	nt	-9	-5	i	1	5
N#C/C(=C\c1ccccc1)C(=O)Nc1cccnc1	3	-12	9	14	-7	i	-3	-1
Cc1ccn2c(-c3csc(NCc4ccco4)n3)c(C)nc2c1	18	-21	6	-111	-10	i	3	-3
CC(C)N(Cc1nccn1C)C(=O)c1ccc(OC2CCN(C(=O)C3CC3)CC2)cc1	-1	-1	3	-3	2	i	0	2
NC(=O)CN(c1ccc([N+](=O)[O-])cc1)S(=O)(=O)c1ccccc1	-6	-9	6	13	-11	i	1	4
O=C(Nc1c[nH]c(=O)[nH]c1=O)c1cccc([N+](=O)[O-])c1	-1	23	4	-232	-13	i	-2	0
O=C(c1ccc(Cl)c(S(=O)(=O)N2CCCCC2)c1)N1CCN(Cc2ccccc2)CC1	12	-14	1	8	-6	i	4	-12
COC(=O)c1c(-c2c(Cl)cccc2Cl)noc1NC(=O)NN1CCOCC1	-11	nt	-16	0	0	nt	2	3
Cn1cnnc1SCC(=O)Nc1ccccc1C(=O)NC1CC1	-4	-6	-11	nt	-14	i	2	6
C/C(=N\OCC(=O)OCC(=O)NCc1ccccc1)c1ccc2c(c1)OCO2	nt	-30	nt	nt	-5	i	-2	0
c1ccc(-c2cn3nc4c(nc3n2)CCCC4)cc1	19	nt	6	nt	11	i	3	7
Cc1ccc(S(=O)(=O)NCc2nc3nc(C)cc(C)n3n2)c(C)c1	6	-16	-5	7	2	i	1	5
CC(OC(=O)CNC(=O)c1ccc2ccccc2c1)C(=O)N(C)C1CCCCC1 (centres undefined)	nt	nt	nt	-5	-6	i	-2	-3
CCCCNC(=O)c1onc(CSc2cccc(OCC)c2)c1C(=O)O	14	-1	-3	11	5	i	-3	3
CN(CC(=O)Nc1ccccc1Cl)CC(=O)Nc1c(F)cccc1F	-10	nt	-6	-8	nt	i	4	3
O=C(COC(=O)/C=C/c1ccc(Cl)cc1)NCCC1=CCCCC1	6	-19	3	-8	6	i	4	6
COc1ccc(NC(=O)CN(C)C(=O)c2cc(C)on2)cc1	nt	-27	nt	0	-11	nt	5	6
Cc1ccc2c(c1)NC(=O)C(CC(=O)NCCCN1CCN(c3cc(C)ccc3C)CC1)O2 (centres undefined)	-2	2	-11	-10	5	i	0	-3
O=c1oc(Cc2ccccc2)nc2ccccc12	4	18	4	-25	-10	i	1	2
COCCSc1nnc(NC(=O)C2CC(=O)N(C3CCCC3)C2)s1 (centres undefined)	4	-4	6	18	nt	i	2	-2
CC1CCN(C(=O)CSc2nnc(CNC(=O)COc3ccc(Cl)cc3)o2)CC1	-1	0	-2	19	6	i	5	-2
OCCCc1nc2n(n1)C(c1ccccc1Cl)C=C(c1cccs1)N2 (centres undefined)	7	-13	26	nt	-1	i	-72	8
CCc1nnc(NC(=O)CSc2nnc(-c3ccccc3O)n2CC)s1	-4	-15	-7	-58	nt	i	0	-2
COc1ccc(-c2cc3c(=O)n(CC(=O)NCc4ccc(F)cc4)ncn3n2)cc1	2	-13	5	-90	17	i	6	9
CCOC(=O)c1cc2nc(Nc3ccc(OC)cc3)sc2s1	2	9	3	nt	-14	i	-4	5
CCCC[C@@H]1CN=C(N)N1CC(C)(C)C	nt	-9	nt	-7	-21	i	4	3
COc1cccc(C(=O)Oc2cccc(N3C(=O)C4C5CC(C(Br)C5Br)C4C3=O)c2)c1 (centres undefined)	-10	5	-4	-64	-9	i	3	0
CC(=O)c1ccc(Cc2ncc(C(F)(F)F)cc2Cl)s1	0	nt	-2	nt	0	i	2	4
COc1cccc(OCc2cc(C(=O)N3CCN(C4CCCC4)CC3)no2)c1	-8	-9	-7	-5	-7	i	3	5
Cc1ccc(NC(=O)COC(=O)c2c[nH]c3ccccc23)cc1C	nt	0	nt	nt	0	nt	0	3
O=C(CSc1n[nH]c(=O)n1C1CC1)Nc1ccc(OC(F)(F)F)cc1	nt	-23	nt	1	nt	nt	8	-10
CCOC(=O)N1CCC(NC(=O)COc2cc(=O)n(C)c3ccccc23)CC1	4	-2	0	6	nt	i	4	9
CSc1nc(-c2ccco2)nn1C(=O)c1ccco1	-22	-13	-12	-10	-2	i	-1	6
COc1ccc(CCNC(=O)C(=O)Nc2ccc3c(c2)OCCO3)cc1OC	-7	nt	6	-13	nt	i	2	1
O=C(CSc1nc2ccccc2s1)N1N=C(c2cccs2)CC1c1ccc(F)cc1 (centres undefined)	-17	11	4	24	-9	+	-5	-6
CCn1c(SCC(=O)Nc2ccc(F)cc2)nnc1C1CC1	9	-7	-6	13	8	i	2	5
O=C(CN(C1CCCCC1)S(=O)(=O)c1ccc(Br)cc1)NCc1ccncc1	5	nt	-3	4	-15	i	1	0
Cc1cc(NCCCN2CCOCC2)n2ncc(-c3ccc(Cl)cc3)c2n1	-6	14	-9	-9	60	i	-10	-10
CCc1nc2c(OCc3cc(Cl)cc(Cl)c3)cccn2c1N(C)C(=O)c1cccc(OC)c1	nt	-9	nt	24	nt	nt	5	2
COc1ccc(CN(C)CCCn2ccc(NC(=O)OCc3ccccc3)nc2=O)cc1OC	nt	-3	nt	-3	nt	nt	2	4
COc1cc(-c2ccc(NC(=O)CN3CCC(C)CC3)c(OC)c2)ccc1NC(=O)CN1CCC(C)CC1	-4	-8	7	-22	nt	i	8	-3
CS(=O)(=O)N1CCCC(C(=O)Nc2ccccc2C(F)(F)F)C1 (centres undefined)	7	-19	-2	-10	0	i	-1	4
COC(=O)CNC(=O)c1cn(CC(C)C)c(=O)c2cc(OC)c(OC)cc12	1	-11	3	-25	0	i	6	7
COc1ccc(/C=C/C(=O)NC(=S)NNC(=O)c2cccs2)cc1OC	-10	-13	12	11	0	i	-1	1
CC(=O)NC(c1cccc(F)c1)c1nc(-c2cnn(C)c2)cs1 (centres undefined)	nt	-17	nt	-3	nt	nt	-4	0
COc1cccc(C(=O)NC(=S)Nc2ccc3[nH]c(=O)[nH]c3c2)c1	0	-24	-5	-19	-6	i	-1	-5
Additional compounds.
SMILES	PABP polyA inh	Yeast UUG start	eIF4H inh	Env fusion inh	CSC inhib	Rce1 inhib	MT1-MMP act inh	MT1-MMP act inh RFP	others
O=C(CN1CCN(C(=O)c2ccc(-c3nc4ccccc4s3)o2)CC1)Nc1ccc(F)cc1	nt	-18	nt	-24	nt	nt	5	-16
C[C@H](CO)N1C[C@H](C)[C@@H](CN(C)C(=O)NC2CCCCC2)Oc2c(NC(=O)C3CC3)cccc2C1=O	nt	-8&5	nt	12[16.7 µM]	3	nt	nt	nt
Cc1ccsc1C(=O)OCC(=O)c1ccc(OC(F)F)cc1	nt	-17	nt	25	nt	nt	1	1
CSc1nc(C)cc(OCC(=O)N2CCOCC2)n1	11	-16	15	nt	-20	nt	0	4
CC1CCN(c2nnc(N3CCC(C)CC3)c3ccccc23)CC1	-2	-17	-4	20	11	i	-7	-12
Cc1cc(C)c(C(=O)N2CCCC(CNS(=O)(=O)N(C)C)C2)o1 (centres undefined)	-6	-9	-10	8	-1	i	0	2
O=C(CCCCCNC(=O)c1ccccc1)N/N=C/c1ccc(O)cc1O	-6	2	7	nt	49	i	-5	2
CC(=O)c1ccccc1OCC(O)CN1CCN(CCN2C(=O)c3cccc4cccc(c34)C2=O)CC1 (centres undefined)	3	nt	-4	-38	5	i	0	-7
O=C(CCN1CCCCCC1)Nc1ccc(F)c(F)c1	4	-12	-5	-25	-19	i	2	4
O=C(CSc1nc2ccccc2[nH]1)NC1CCCc2ccccc21 (centres undefined)	-2	nt	-5	-10	3	i	-6	-1
CCCCN(C(=O)c1ccc(-c2ccc(Cl)cc2)o1)c1c(N)n(CCCC)c(=O)[nH]c1=O	nt	-8	nt	-2	3	nt	-8	-2
CCOC(=O)C1CCN(C(=O)CCNC(=O)Cn2ccc3ccccc3c2=O)CC1	4	-3	-2	-57	-18	i	3	7
NC(=O)c1cccnc1Nc1cccc(F)c1	8	nt	3	1	-10	i	7	7
Cc1ccc2nc(NC(=O)[C@H](C)N3C(=O)C4CC=CCC4C3=O)sc2c1 (some centres undefined)	-6	nt	-4	9	-1	i	-1	0
COc1ccc(-c2nc(CSCC(=O)N3CCN(C(=O)c4ccco4)CC3)c(C)o2)cc1OC	-3	-1	-7	-15	2	i	7	6
COc1ccc(/C(C)=N/Nc2ccccc2Cl)c(O)c1	0	nt	3	-121	1	nt	-2	1
c1ccc2[nH]c(CN3CCCCC3)nc2c1	-4	-29	2	nt	-15	i	7	1
Cc1ccc(NC(=O)C(Nc2ccccc2)c2ccccc2)cc1 (centres undefined)	-6	nt	-3	-10	24	i	3	8
CN(C)c1ncc(S(=O)(=O)c2ccc(Cl)cc2)c(-c2ccc(Cl)cc2Cl)n1	1	-12	-3	14	32	i	-13	-9
C/C(=N/NC(=O)c1ccco1)c1ccc(Br)s1	13	-26	2	-23	-9	i	2	3
CCCCOCCCNC(=O)c1ccc(NC(C)=O)cc1	-5	-18	-6	nt	-3	i	3	1
CC(=O)Nc1nnc(CCS(=O)(=O)c2ccc(C)cc2)s1	nt	7	nt	9	-14	i	-1	0
S=c1[nH]nc(COc2ccc(Cl)cc2)n1Cc1ccco1	-4	nt	18	5	13	nt	3	-2
